# Assay outcomes (PubChem BioAssay)
# Autofluor counter = counter-screen for toxin protease inhibitors: compound fluorescence | compound autofluorescence counterscreen, microsphere flow cytometry; active compounds read high | fluorescence intensity (no concentration beside the values) | 360,000 compounds, 3.1% hits;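 active means at least 3 SD above the mean of all compounds, about 16000 in these data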;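 further: 100 nL of 1 mM stock went into each well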
# An asterisk follows results filed as active. The list is partial; the hit share may differ from the screen's.
# The first 5 compounds, ahead of the listing:
SMILES,Autofluor counter
COCCNC(=O)c1cc2c(c(-c3cccc(C#Cc4ccc(OC)c(OC)c4)c3)n1)[C@@H](CCO)N(S(=O)C(C)(C)C)C2 (stereo partly specified),5714
COc1ccc(NC(=O)c2cc(-c3cc(F)ccc3OC)n[nH]2)cc1OC,4031
C=C[C@]1(C)C=C2C(=O)[C@@]3(O)OC(=O)[C@@]4(CCCC(C)(C)[C@H]34)[C@@]2(O)CC1,4719
COc1ccc(CCNC(=O)CSc2nc3ccsc3c(=O)n2Cc2ccccn2)cc1OC,3798
CC1NS(=O)(=O)c2cc([N+](=O)[O-])ccc21 (stereo unspecified),5622

# The whole of this part (from the top)
SMILES,Autofluor counter
COCCNC(=O)c1cc2c(c(-c3cccc(C#Cc4ccc(OC)c(OC)c4)c3)n1)[C@@H](CCO)N(S(=O)C(C)(C)C)C2 (stereo partly specified),5714
COc1ccc(NC(=O)c2cc(-c3cc(F)ccc3OC)n[nH]2)cc1OC,4031
C=C[C@]1(C)C=C2C(=O)[C@@]3(O)OC(=O)[C@@]4(CCCC(C)(C)[C@H]34)[C@@]2(O)CC1,4719
COc1ccc(CCNC(=O)CSc2nc3ccsc3c(=O)n2Cc2ccccn2)cc1OC,3798
CC1NS(=O)(=O)c2cc([N+](=O)[O-])ccc21 (stereo unspecified),5622
COc1ccc([N+](=O)[O-])cc1N(CC(O)CN1C(=O)NC(C)(C)C1=O)S(=O)(=O)c1ccc(C)cc1 (stereo unspecified),3740
O=C(O)c1ccccc1-c1ccccc1C(=O)Nc1ccc2c(c1)oc(=O)c1ccccc12,3607
CC(C)C(=O)N1CCC1(C)C(=O)Nc1ccccc1OC(F)F (stereo unspecified),4067
CCCCN1C(=O)C(CC(=O)NC2CCCCC2)CC(C(=O)N2CCOCC2)=C1C (stereo unspecified),5073
C=CCOc1cccn2c(N(C)C(=O)c3ccc(OC)cc3)c(CC)nc12,4013
O=C(OCc1ccccc1)N1CCC2CC1c1cc(N3Cc4ccccc4-n4nncc4C3)ccc12 (stereo unspecified),2794
CN1CCN(c2nc3cc(N4CCOCC4)ccc3s2)CC1,3777
Cc1cc(C)cc(CC(=O)N2CCC2(C)C(=O)NS(=O)(=O)c2ccccc2Cl)c1 (stereo unspecified),3935
CNc1ncnc2c1ncn2[C@H]1CN(Cc2cccnc2)C[C@@H](CO)O1,2890
NC(CCc1ccccc1)c1csc(Nc2cnccn2)n1 (stereo unspecified),3643
CCn1cc(CN2CCC(C(=O)Nc3ccc(Oc4ccccc4F)cc3)CC2)cn1,3888
COC1=CC(C)C2CC3OC(=O)CC4C(C)=C(OC)C(=O)C(C2(C)C1=O)C34C (stereo unspecified),5656
CC(C)NC(=O)C1CC(=O)N(CCc2ccc(F)cc2)C1 (stereo unspecified),3350
CCC(c1nnnn1Cc1ccccc1)N1CCC2(CC1)C(=O)NCN2c1ccccc1 (stereo unspecified),5570
CCN(CC)C(=O)C1=C(C)N(Cc2ccc(OC)cc2)C(=O)C(CC(=O)NCc2ccco2)C1 (stereo unspecified),3530
C[C@H](CO)N1C[C@H](C)[C@H](CN(C)S(=O)(=O)c2ccc(F)cc2)Oc2ncc(Br)cc2C1=O,3238
Cc1ccc(Nc2nc(NCc3ccccc3)nc3ccsc23)c(C)c1,3110
CC(C)CC1C(=O)N(Cc2cn(Cc3ccco3)nn2)CCS(=O)(=O)N1Cc1ccc(-c2ccccc2)cc1 (stereo unspecified),3719
Cc1nc(-[n+]2nc(-c3ccncc3)nn2-c2ccccc2)sc1C,5754
COc1ccc(C(C)=O)cc1Cn1c(C)c(C(=O)NCc2ccc(C(C)C)cc2)sc1=O,5326
Cc1noc(C)c1NC(=O)N(C)C[C@H]1OCc2cnnn2CCCC(=O)N([C@H](C)CO)C[C@@H]1C,3000
CCCCn1nnnc1C(c1ccccc1)N1CCN(c2ccccc2OC)CC1 (stereo unspecified),4366
CCOC(=O)C1=CCN(S(=O)(=O)c2ccc(C)cc2)C1c1cccc(Cl)c1 (stereo unspecified),4320
C[N+](C)(C)CCNC(=O)c1ccccc1,5813
COC(=O)[C@@]1(Cc2ccc(F)cc2)[C@H]2c3cc(C(=O)N(C)C)n(CCc4c[nH]c5ccc(OC)cc45)c3C[C@H]2CN1C(=O)c1ccccc1,6230
CCCC(=O)N1CCCC1(C)C(=O)NCc1c(F)ccc(C)c1F (stereo unspecified),3498
C#CCN(C[C@H]1[C@H](OC(=O)NCc2ccccc2F)[C@H](OC(=O)NCc2ccccc2F)C[C@H]2C(=O)N(c3ccccc3)C(=O)[C@@H]12)S(=O)(=O)c1ccc(C)cc1,3610
COc1cc(C(O)c2nc(-c3cccc(C(=O)O)c3)cs2)ccc1F (stereo unspecified),3443
CCOC(=O)C1=C(O)/C(=C/c2ccc(-c3ccccc3C(=O)O)o2)SC1=Nc1ccc(C)cc1,3636
COc1cc(C(=O)OCC(=O)Nc2ccccc2)cc2c1OCCO2,2969
O=c1nc(Oc2ccccc2)nc2ncccn12,3695
Cc1ccc(CC(=O)Nc2cccc(C(=O)Nc3c(C)n(C)n(-c4ccccc4)c3=O)c2)cc1C,4128
CCCCCCN1C[C@@H](n2cc(C3CC3)nn2)[C@H](O)C[C@@H]1c1ccc(C)cc1,4022
CCc1nc2c(OCc3ccccc3C)cccn2c1N(C)C(=O)C1CC1,4158
Cc1c(C(=O)NCc2ccc3c(c2)OCCO3)sc(=O)n1Cc1ccc(S(=O)(=O)N(C)C)cc1,5599
O=C(NC1CCCCC1)C1c2ccccc2OCC(=O)N1CC(F)(F)F (stereo unspecified),5972
COc1ccccc1N1CCN(S(=O)(=O)CCNC(=O)COc2ccccc2)CC1,3494
CCOc1ccc(C2CC=C(C(C)=O)CN2S(=O)(=O)c2ccc(C)cc2)cc1 (stereo unspecified),4329
O=C1[C@H]2[C@@H](c3ccccc3)N[C@]3(CCCN(Cc4ccc(C(F)(F)F)cc4)C3=O)[C@H]2C(=O)N1Cc1ccccc1,3657
COc1ccc2nc(N3C(=O)C(O)=C(C(=O)c4ccco4)C3c3ccc(OC)c(OC)c3)sc2c1 (stereo unspecified),3744
CCOC(=O)[C@]12CCC=C1N(Cc1ccccc1)C(=O)[C@H](CC(=O)N1CCSCC1)C2,6432
COc1cc(C2c3cc4c(cc3C3OC(=O)C2C3CO)OCO4)cc(OC)c1OC (stereo unspecified),4063
COc1ccc(NC(=O)C2Cc3c(-c4ccc(Cl)cc4)ccnc3O2)cc1 (stereo unspecified),3758
Cc1noc(C)c1NC(=O)N(C)C[C@@H]1Oc2ncc(Br)cc2C(=O)N([C@@H](C)CO)C[C@H]1C,3006
CC(=O)NC(c1ccc(F)c(F)c1)c1nc(-c2ccccc2)cs1 (stereo unspecified),3541
CCN(CC1CCCN(CCc2cccc(F)c2)C1)C(=O)c1ccoc1C (stereo unspecified),4269
Cc1ccccc1NC(=O)CN1CCCC1,4020
COCCn1c(SCC(=O)N2CCCC2=O)nnc1-c1ccncc1,3148
CCCCCCN1CCN(C2CN(CCCC)S(=O)(=O)C2)CC1 (stereo unspecified),5583
CN1OC[C@@H]2CN[C@H](c3ccc(-c4cccc(F)c4)cc3)C[C@@H]21,3882
CC(=O)NC(c1ccccc1)c1nc(-c2cccc(CO)c2)cs1 (stereo unspecified),3633
CCCN(C)C[C@H]1Oc2ncc(Br)cc2C(=O)N([C@@H](C)CO)C[C@@H]1C,3076
COc1ccc(C(=O)N2CCC(C)(C(=O)O)C2)cc1OC (stereo unspecified),2897
CC1(C(=O)NS(=O)(=O)c2cccc(Cl)c2)CCN1C(=O)C1(c2ccc(Cl)cc2)CC1 (stereo unspecified),3643
CCCCN1CC(N2CCN(CCO)CC2)CS1(=O)=O (stereo unspecified),4544

# (next part)
SMILES,Autofluor counter
C[C@H]1NS(=O)(=O)c2cc(Cl)ccc2O[C@@H]1c1ccccc1,3703
COCCNc1nc(Nc2ccc(F)cc2)c2sccc2n1,3747
O=c1[nH]c2cc3ccccc3cc2nc1-c1nnnn1Cc1ccccc1,6387
CC1(C(=O)NS(=O)(=O)c2ccc(Cl)cc2)CCN1C(=O)c1cccc(F)c1 (stereo unspecified),3572
CC1(C(=O)Nc2ccc(Cl)c(C(F)(F)F)c2)Cc2c(-c3cccc(C(N)=O)c3)ccnc2O1 (stereo unspecified),3905
O=C(O)c1cc2ccc(O)cc2oc1=O,3609
C#CCOc1ccc(CNC[C@H]2O[C@@H](n3ccc(N)nc3=O)[C@H](O)[C@@H]2O)cc1,3319
COc1ccc(-c2ccc3c(c2)c(Sc2ccccc2)c(-c2ccccc2)n3C)cc1,4215
CN(C)C(=O)c1ccc(SC(=S)NCc2ccccc2)cc1,5793
O=C(Nc1nc2ccccc2s1)c1ccc2sc([C@H]3C[C@H](O)[C@@H](CO)O3)nc2c1,2960
NC(COCc1ccccc1)c1csc(Nc2cc(NCCCO)ncn2)n1 (stereo unspecified),2961
CN(C)c1cccc(CNC(=O)c2csc(COCCO)n2)c1,3801
O=[N+]([O-])c1ccc(NS(=O)(=O)c2ccc(Cl)c(Cl)c2)cc1,5873
NC(=O)c1cccc(-c2ccnc3c2CC(C(=O)NCCC(F)(F)F)O3)c1 (stereo unspecified),4008
COc1cccc(CN(C)C[C@H]2OCc3cnnn3CCCC(=O)N([C@H](C)CO)C[C@@H]2C)c1,2945
COc1ccc(Nc2nnc(SCC(=O)N(CC(C)C)C3CCS(=O)(=O)C3)s2)cc1 (stereo unspecified),3814
Cc1ccc(C(=O)N2CCN(c3ccc4c(c3)C3CC4CCN3C(=O)OCc3ccccc3)CC2)cc1 (stereo unspecified),5103
CC(C)(C)C(=O)NCc1ccc(C(=O)CSc2nnc3n2CCCCC3)s1,4219
CCCCn1c(N)c(N(CCC(C)C)C(=O)CSc2nc3ccccc3s2)c(=O)[nH]c1=O,3701
CCOC(=O)[C@]12CCC=C1N(Cc1ccco1)C(=O)[C@H](CC(=O)N1CCCC1)C2,5096
C[C@@H]1CN([C@H](C)CO)C(=O)c2cc(Br)cnc2O[C@H]1CN(C)Cc1ccccc1,3828
COC(=O)[C@]12CCCCC=C1N(Cc1ccccc1)C(=O)[C@H](CC(=O)N1CCN(C(=O)c3ccco3)CC1)C2,6850
Cc1ccc([C@H]2N[C@]3(CCCN(Cc4ccco4)C3=O)[C@H]3C(=O)N(C)C(=O)[C@@H]23)cc1,3621
C=C(C)Cn1c2ccc(NC(=S)NCc3ccccc3F)cc2c(=O)n1C,3679
CCc1nc2ccc(C(=O)N3CCN(S(=O)(=O)CC)CC3)cn2c1N(CC)CCOC,2831
COc1ccc(-c2ccc(CN3C(C)C(=O)N(Cc4cn(CCC5OCCO5)nn4)CCS3(=O)=O)cc2)cc1OC (stereo unspecified),3532
Cc1ccc(Cn2cc(CN3CC(N4CCN(Cc5ccccc5F)CC4)CS3(=O)=O)nn2)cc1 (stereo unspecified),4598
Cc1cc(=O)n(Cc2ccco2)c(=S)[nH]1,3970
O=C(Nc1ccc2c(c1)OCO2)C1Cc2c(-c3ccncc3)ccnc2O1 (stereo unspecified),3054
COc1cccc(C(NC(C)=O)c2nc(-c3cccc(F)c3)cs2)c1 (stereo unspecified),3456
CC(C)c1ccc(NC2CCCN(C(=O)CN3CCCCC3=O)C2)cc1 (stereo unspecified),3969
COC(=O)c1ccc2nc(C3CCCCC3)c(Cc3ccc(C)cc3)n2c1,6986
CC(O)(c1ccc(F)c(F)c1)c1nc(-c2cccc(C#N)c2)cs1 (stereo unspecified),3121
Cc1cc(Cl)ccc1-c1cc2nc(NCCCN(C)C)n(C)c(=O)c2s1,3499
CCCCC(=O)N(C)c1c(CC)nc2c(OCc3ccc(S(C)(=O)=O)cc3)cccn12,4316
CC1=CN2C(c3cccc([N+](=O)[O-])c3)=NON(c3ccc(C)cn3)C2C=C1 (stereo unspecified),6111
CCOC(=O)C1=CCN(S(=O)(=O)c2ccccc2Br)C1c1ccc(Cl)c(Cl)c1 (stereo unspecified),4406
COc1ccc(C(C)C)cc1-c1cncc(NC(C)=O)n1,3729
CC1(C(=O)NS(=O)(=O)c2cccc(Cl)c2)CCN1C(=O)CC1CCCCC1 (stereo unspecified),2879
C=CCC[C@@H](CCCCC)OC(=O)/C=C/[C@H](O)[C@@H](O)C[C@@H](O)CC=C,6122
O=C(Nc1ccc2c(c1)OCCO2)C(C1CC1)N1CCC(Cc2ccccc2)CC1 (stereo unspecified),5437
CCCCNS(=O)(=O)c1cccc(NC(=O)[C@@H]2O[C@H](CO)[C@H](O)[C@H](O)[C@H]2O)c1,3440
COc1ccccc1-c1nnc(NC(=O)CCS(=O)(=O)c2ccc(F)cc2)o1,2940
CC1(C(=O)NS(=O)(=O)c2ccccc2)CCN1C(=O)Cc1ccccc1Cl (stereo unspecified),3899
CC(=O)c1ccc(-c2c(CCO)sc3ccccc23)cc1,5119
CN(C)c1ccc(NC(=O)Nc2ccc3c(c2)c(=O)n(C)n3-c2ccccc2)cc1,3311
C[C@H]1CN([C@@H](C)CO)C(=O)c2cc(Br)cnc2O[C@@H]1CN(C)S(C)(=O)=O,3086
CC(C)c1ccc(CN2CCC2(C)C(=O)Nc2cccc(Oc3ccccc3)c2)cc1 (stereo unspecified),3991
C(=C\c1ccccc1)/CN1CCN(C(c2cc3ccccc3o2)c2nnnn2C2CCCC2)CC1 (stereo unspecified),4213
C/C=C/c1ccc2c(c1)O[C@@H](CN(C)C(=O)c1ccc(F)cc1)[C@@H](C)CN([C@H](C)CO)S2(=O)=O,3543

# Compounds shown so far containing a tert-butyl group:
SMILES,Autofluor counter
COCCNC(=O)c1cc2c(c(-c3cccc(C#Cc4ccc(OC)c(OC)c4)c3)n1)[C@@H](CCO)N(S(=O)C(C)(C)C)C2 (stereo partly specified),5714
CC(C)(C)C(=O)NCc1ccc(C(=O)CSc2nnc3n2CCCCC3)s1,4219
